Screening results (PubChem BioAssay)
FGF22 binding – binders of recombinant human FGF22 by thermal shift; Q9HCT0; SYPRO orange fluorescence; percent of sucrose octasulfate shift, DMSO zero; calls only at 9.99 µM; 1.5% of 340,000 active;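 active means melting point raised past a set limit in the mean and every replicate; inconclusive means no clear call; three in four hits are not shown here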
ALR inh – human ALR oxidase inhibition via reduced H2O2 | AID 485317 | inhibition, % (test concentration not listed) | P55789 | purified ALR, DTT oxidation, H2O2 HRP-luminol luminescence | 3.8% of 290,000 active;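 active means mean and each replicate at 75% or more; inconclusive means only one of the two met; inactive means neither met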;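 further: stock transfer was 7.5 nL into about 7.5 µL; 0% = neutral wells and 100% = wells with inactivated enzyme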
Ecoli growth – inhibitors of Escherichia coli growth | OD600, 23 h; active compounds read low | OD600 absorbance (no concentration beside the values) | 0.21% of 330,000 active | AID 1053175;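 active means OD600 absorbance below the run mean of sample wells minus 3.6 SD, in any replicate, cut at about 0.56 in these data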;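 further: stock transfer was 300 nL into about 60 µL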
Ecoli rRNA inh – inhibitors of bacterial rRNA selective over humanized ribosomes. 1.6% of 350,000 active. AID 720706. E. coli WT GFP vs humanized-ribosome RFP mutants, fluorescence, 24 h; active compounds read low; DMSO median 0, no signal -100. GFP signal change (wild-type ribosome), % (concentration not given with the values);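 active means significant combined selectivity score with lowered wild-type GFP, culture density cut under 30%, mutant RFP and density less affected; inactive means any of these conditions unmet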; further: one replicate is shown; some compounds called inactive have numbers as strong as hits
UCH37 DUB inh – human UCH37 deubiquitinating enzyme inhibition; purified proteasome/UCH37, Ub-AMC cleavage fluorescence; inhibition, % (test concentration not listed); 0.33% of 330,000 active; AID 588478;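 active means mean of two replicates above 20%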;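 further: 0% = compound-free wells with enzyme and 100% = wells lacking proteasome; stock transfer was 100 nL into about 20 µL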
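Reagent: Ub-AMC substrate; assay system: Proteasome-associated human UCH37 deubiquitinase; controls: no-proteasome and no-compound wells; read-out: % inhibition of Ub-AMC cleavage fluorescence; timing: 30 min preincubation with enzyme, 25 min cleavage at room temperature; signal: AMC fluorescence from Ub-AMC cleavage, excitation 355 nm, emission 460 nm; buffer or medium: Tris-HCl pH 7.4 plus ovalbumin, ATP-MgCl2, DTT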
HNF4A DNA FP – change in binding of human HNF4 alpha to DNA | P41235 | HNF4a-FITC DNA binding, fluorescence polarization, 1 h | activity change, % at 10 µM | 0.3% of 360,000 active; in the data active means activity change above about 30%, passing the limit was not always enough;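 further: controls were the assay level and a saturating level of protein; the project sought stronger binding though the title names inhibitors; some compounds called inactive have numbers as strong as hits; positive values seem to mean higher polarization but the record does not say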
Target sequence (P41235 whole entry, looked up): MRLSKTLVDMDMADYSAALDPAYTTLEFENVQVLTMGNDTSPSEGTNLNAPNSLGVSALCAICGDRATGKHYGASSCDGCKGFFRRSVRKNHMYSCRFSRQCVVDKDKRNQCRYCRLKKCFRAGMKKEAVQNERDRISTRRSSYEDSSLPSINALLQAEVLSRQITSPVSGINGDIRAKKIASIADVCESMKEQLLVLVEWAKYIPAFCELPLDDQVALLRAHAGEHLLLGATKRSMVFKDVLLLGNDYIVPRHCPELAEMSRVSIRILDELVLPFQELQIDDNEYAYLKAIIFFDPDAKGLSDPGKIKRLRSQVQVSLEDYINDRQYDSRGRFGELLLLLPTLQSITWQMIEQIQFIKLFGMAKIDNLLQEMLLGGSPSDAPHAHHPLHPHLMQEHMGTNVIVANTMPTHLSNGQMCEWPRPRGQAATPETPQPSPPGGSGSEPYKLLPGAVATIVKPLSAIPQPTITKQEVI
Beta2AR agonist – activates human beta-2 adrenergic receptor causing internalization; Am2.2-beta2AR cells, FAP receptor internalization, flow cytometry; reference of the scale not given here; response, % (test concentration not listed); 0.43% of 340,000 active; AID 504454;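 active means response above a set limit, near 3 SD of response in nonfluorescent compounds, cut at about 42% in these data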;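 further: stock transfer was 100 nL into about 11 µL; a reference agonist was the positive control; negative values mostly stem from fluorescent compounds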
Target sequence (P07550 whole entry, looked up): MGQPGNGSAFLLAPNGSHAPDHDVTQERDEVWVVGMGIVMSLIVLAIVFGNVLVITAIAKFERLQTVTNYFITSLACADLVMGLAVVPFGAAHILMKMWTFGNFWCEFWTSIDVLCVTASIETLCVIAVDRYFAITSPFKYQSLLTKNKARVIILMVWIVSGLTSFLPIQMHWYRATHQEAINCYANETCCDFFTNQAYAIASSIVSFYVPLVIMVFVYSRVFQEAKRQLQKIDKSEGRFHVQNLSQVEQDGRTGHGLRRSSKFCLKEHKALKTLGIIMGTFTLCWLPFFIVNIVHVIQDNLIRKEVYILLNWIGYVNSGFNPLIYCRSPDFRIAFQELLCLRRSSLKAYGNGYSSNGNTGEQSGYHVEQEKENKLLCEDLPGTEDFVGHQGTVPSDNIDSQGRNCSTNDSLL
Ecoli rRNA inh OD600 – also measured in Ecoli rRNA inh; calls as there; OD600 change, %; measured here: OD600 growth;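 optical density of the mix in the first replicate; 0 = DMSO median and -100 = no signal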
Ecoli rRNA inh RFP – second read-out of Ecoli rRNA inh, no call of its own (marks repeat the call); RFP signal change, %; measured here: RFP humanized mutant strains;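 first replicate; 0 = DMSO median and -100 = no signal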
Starred values were filed as active, the others as inactive; i = inactive; ? = inconclusive; · = no result given. A portion of the library; rates above refer to the full screens.

The line under a structure holds: Beta2AR agonist, Ecoli rRNA inh, Ecoli rRNA inh RFP, FGF22 binding, UCH37 DUB inh, ALR inh, Ecoli rRNA inh OD600, HNF4A DNA FP, Ecoli growth
O=C(O)c1ccc(Cn2cc(Cl)cn2)cc1
    1.3, ·, ·, ·, -2.3, -2.7, ·, 0.3, 0.746
Cc1ccc2nsnc2c1S(=O)(=O)Nc1ccccc1C(=O)O
    -3.8, 3.4, 0.8, i, 2.4, -3.1, 2.9, 1.6, 0.643
CC1CCN(c2nc3ccccc3nc2N2CCC(C)CC2)CC1
    ·, ·, ·, ·, -4.7, 4.3, ·, ·, 0.689
CCCCOc1ccc(S(=O)(=O)N2CCN(C)CC2)cc1
    -4.9, 1.9, -0.6, i, 1.9, -5.8, -1.4, 8.6, 0.659
CCN(CC)c1ccc(NC(=O)CCc2nnc3ccc(N4CCCCC4)nn23)c(C)c1
    -11.7, -7.4, -4.5, i, 6.6, ·, -24.5, 3.2, 0.733
Cc1cccc(NC(=O)CSc2nnc(-c3ccc(S(=O)(=O)N4CCCC4)cc3)o2)c1
    -4.6, -0.5, -0.4, i, 3.6, -2.8, 8.0, -5.7, 0.738
O=C(O)C1CC(O)CN1c1nc(Cl)ccc1[N+](=O)[O-] (stereo unspecified)
    0.2, 6.3, 0.1, i, 4.2, -16.4, 3.4, -9.3, 0.656
COc1ccc(-c2ccccc2)c2oc(-c3ccco3)cc(=O)c12
    ·, ·, ·, ·, -0.6, 44.5, ·, ·, 0.662
Cc1cccc[n+]1CC(=O)c1ccc(NC(=O)c2ccccc2)cc1
    -10.6, 8.6, -0.5, i, 5.2, 11.8, 9.1, -0.1, 0.68
Cc1cc(C(=O)OCn2nnc3ccccc3c2=O)c(C)o1
    7.6, ·, ·, ·, 1.3, -1.8, ·, 3.6, 0.719
Cc1ccc(S(=O)(=O)Nc2ccccc2[N+](=O)[O-])cc1
    ·, 0.6, 11.8, i, ·, ·, -10.7, 4.0, ·
COc1ccc(N2CCN(C(=O)c3cc4c(-c5ccc(Cl)cc5)nn(C)c4s3)CC2)cc1
    -1.9, 2.4, 1.2, i, -0.4, 37.5, 2.5, 2.4, 0.793
Cc1ccc(CSCCNC(=O)c2ccc(NS(C)(=O)=O)cc2)cc1
    -5.2, 2.8, -2.9, i, 3.6, -63.0, 6.7, 3.2, 0.688
CCOC(=O)C1CCN(C(=O)Cn2nc(C)n3c(cc4cc(C)ccc43)c2=O)CC1
    7.7, -7.5, -8.2, i, -19.1, -11.8, -4.9, 1.6, 0.655
COc1ccccc1NC(=O)C1=C(C)Nc2nc(-c3cccs3)nn2C1c1cccnc1 (stereo unspecified)
    -8.4, -1.4, -1.3, i, 1.8, 2.9, 6.4, -2.2, 0.761

A portion taken from the entries so far, as a working copy:
The line under a structure holds: Beta2AR agonist, Ecoli rRNA inh, Ecoli rRNA inh RFP, FGF22 binding, UCH37 DUB inh, ALR inh, Ecoli rRNA inh OD600, HNF4A DNA FP, Ecoli growth
O=C(O)c1ccc(Cn2cc(Cl)cn2)cc1
    1.3, ·, ·, ·, -2.3, -2.7, ·, 0.3, 0.746
Cc1ccc2nsnc2c1S(=O)(=O)Nc1ccccc1C(=O)O
    -3.8, 3.4, 0.8, i, 2.4, -3.1, 2.9, 1.6, 0.643
CC1CCN(c2nc3ccccc3nc2N2CCC(C)CC2)CC1
    ·, ·, ·, ·, -4.7, 4.3, ·, ·, 0.689
CCCCOc1ccc(S(=O)(=O)N2CCN(C)CC2)cc1
    -4.9, 1.9, -0.6, i, 1.9, -5.8, -1.4, 8.6, 0.659
CCN(CC)c1ccc(NC(=O)CCc2nnc3ccc(N4CCCCC4)nn23)c(C)c1
    -11.7, -7.4, -4.5, i, 6.6, ·, -24.5, 3.2, 0.733
Cc1cccc(NC(=O)CSc2nnc(-c3ccc(S(=O)(=O)N4CCCC4)cc3)o2)c1
    -4.6, -0.5, -0.4, i, 3.6, -2.8, 8.0, -5.7, 0.738

(continued)
The line under a structure holds: Beta2AR agonist, Ecoli rRNA inh, Ecoli rRNA inh RFP, FGF22 binding, UCH37 DUB inh, ALR inh, Ecoli rRNA inh OD600, HNF4A DNA FP, Ecoli growth
COc1ccc(C(=O)N2CCCC(c3cc(C(=O)NCc4ccccc4)no3)C2)cc1 (stereo unspecified)
    ·, 5.4, -5.1, i, ·, ·, -31.5, -3.3, ·
CCOc1ccc(OCC(=O)OCC(=O)Nc2ccc3[nH]c(=O)[nH]c3c2)cc1
    -1.9, 11.2, -1.6, i, 4.6, ·, 17.1, 1.7, 0.671
Cc1cc(S(=O)(=O)NCc2ccccc2)ccc1OCC(=O)NCC1CCCO1 (stereo unspecified)
    -3.3, -0.6, -8.9, i, -1.1, -10.4, -0.6, 1.5, 0.668
Cc1ccccc1Nc1ncc(C#N)c(N)n1
    2.3, 9.9, -0.4, i, -0.1, -6.4, 11.1, 3.0, 0.654
CN(C)c1ccc(CNc2ncn[nH]2)cc1
    -10.8, 14.3, 2.4, i, 0.7, 74.2, 9.8, -0.9, 0.701
COc1ccc(Cc2ccc(OC)c(N)c2)cc1N
    -1.2, 4.8, -0.1, i, 7.6, ?, 11.1, -0.1, 0.654
Cc1ccc2c(c1)C1CC(C)(O2)N(c2cccc(C(=O)N3CCN(c4ccccn4)CC3)c2)C(=O)N1 (stereo unspecified)
    -1.2, -1.6, -1.0, i, 4.4, 4.3, -1.5, -1.7, 0.673
CCCCN(CCCC)Cc1cc(=O)oc2ccc3ccccc3c12
    ·, 4.0, -1.6, i, ·, ·, 4.3, 1.1, ·
N#CCCn1c(O)c(N=NC(=O)CNC(=O)c2cccs2)c2ccccc21
    -7.0, 8.1, -3.0, i, 7.3, -5.8, -0.5, -1.2, 0.687
O=c1[nH]c(Cn2nnc(-c3ccccc3)n2)nc2scc(-c3ccccc3)c12
    -7.6, ·, ·, ·, -0.6, -1.7, ·, 4.0, 0.81
CS(=O)(=O)N1CCCCC1c1cc(C(=O)Nc2cccc(C#N)c2)no1 (stereo unspecified)
    ·, 16.0, -1.7, i, ·, ·, 14.6, 2.9, ·
O=C(O)c1ccc(NC(=S)N2CCCCC2)cc1
    3.8, 15.2, 0.6, i, 0.8, 4.5, 6.3, -2.7, 0.686
Cc1ccc2nc(-c3ccc(F)cc3)nc(SCC(=O)NCC3CCCO3)c2c1 (stereo unspecified)
    -6.9, ·, ·, i, 0.9, -2.4, ·, 1.7, 0.719
O=[N+]([O-])c1ccccc1/C=C/C=N/n1c(-c2ccco2)n[nH]c1=S
    -0.1, -1.5, 2.2, i, ·, 4.1, 2.3, -1.0, ·
Cc1nc2ncnn2c(C)c1Cc1ccc(Cl)cc1
    -7.1, ·, ·, ·, -1.8, -1.6, ·, 1.5, 0.722
Cc1ccc([N+](=O)[O-])c(OCCCN2C(=O)NC(C)(C)C2=O)c1
    -2.8, 12.0, 0.5, i, 5.1, -4.0, 6.9, 2.1, 0.713
COc1ccc(C(O)C(CC(=O)NCCCOC(C)C)C(=O)NCCCOC(C)C)cc1OC (stereo unspecified)
    0.6, ·, ·, i, -2.1, -1.8, ·, 3.1, 0.72
CCSc1nnc(NC(=O)C2Cc3ccccc3CN2C(=O)c2ccco2)s1 (stereo unspecified)
    11.8, ·, ·, ·, 1.1, 11.1, ·, -2.7, 0.698
CCCn1cc(SCC(=O)Nc2nnc(C)s2)c2ccccc21
    13.4, 7.2, 1.1, i, 7.4, -5.5, 2.1, 3.2, 0.748
CCCCCN(C(=O)CCC(=O)OCC(=O)NCCc1ccccc1)c1c(N)n(CCCC)c(=O)[nH]c1=O
    ·, 9.0, 4.5, i, ·, ·, 7.2, 1.8, ·
S=c1[nH]nc(-c2cccc(Br)c2)o1
    10.6, ·, ·, ·, -3.8, ·, ·, 2.7, 0.676
Cc1ccc(C)c(CNS(=O)(=O)c2c(C)[nH]c(C)c2C(=O)N2CCCCC2)c1
    -1.6, -4.6, 2.1, i, -0.7, 0.3, -6.3, 9.7, 0.625
O=C(/C=C/c1ccco1)N(Cc1ccc(Cl)cc1)C1CCS(=O)(=O)C1 (stereo unspecified)
    -1.4, -1.2, 2.1, i, 7.5, -2.0, -0.8, -4.6, 0.641
Cn1c(C(=O)OC(C(=O)NC2CCCC2)c2cccnc2)cc2sccc21 (stereo unspecified)
    -12.0, ·, ·, ·, 3.1, -2.2, ·, -2.9, 0.688
CCc1nc2c(OCc3ccc4c(c3)OCO4)cccn2c1N(C=O)Cc1ccccc1
    ·, -52.0, -12.4, i, ·, ·, -69.2, 4.5, ·
CN(CC(=O)Nc1cccc(F)c1)C(=O)c1cn(-c2ccccc2)nc1-c1cccs1
    6.6, -22.0, 34.1, i, -1.3, ·, -49.5, 0.6, 0.742
O=C(CC1Oc2ccccc2NC1=O)NCCCN1CCN(C2CCCCC2)CC1 (stereo unspecified)
    3.8, -0.9, 5.7, i, 4.0, -111.3, 0.4, 2.3, 0.727
CC1(C(=O)NS(=O)(=O)c2ccc(Cl)cc2)CCN1C(=O)C1CCCCC1 (stereo unspecified)
    ·, 6.0, -13.3, i, ·, ·, 12.8, 7.0, ·
CCOc1ccc(-c2nc(C#N)c(NCC3CCCO3)o2)cc1 (stereo unspecified)
    -4.9, ·, ·, ·, -175.0, ·, ·, 1.5, 0.663
O=C(/C=C/c1cccc(Cl)c1)N1CCC(Cc2ccccc2)CC1
    -0.7, ·, ·, ·, 5.1, -1.7, ·, -0.6, 0.724
CC(=O)c1cccc(Nc2ncnc3ccc(Br)cc23)c1
    11.7, 9.2, -1.3, i, -10.7, 0.0, 10.3, 3.4, 0.689
CCCCN(C(=O)CSc1nnc(-c2ccc(OC)cc2)n1CC)c1c(N)n(Cc2ccccc2)c(=O)[nH]c1=O
    3.2, ·, ·, ·, 0.3, -4.8, ·, -5.2, 0.663
N#CCCN1CCN(S(=O)(=O)c2ccc3c(c2)OCCCO3)CC1
    20.6, ·, ·, ·, -1.6, -4.6, ·, -1.6, 0.727
CC(=O)Nc1ccc(S(=O)(=O)Nc2cccc(-c3cn4cccnc4n3)c2)cc1
    20.3, 15.4, 0.0, i, -426.0, -15.7, 9.9, 2.5, 0.677
Cc1ccc(S(=O)(=O)Oc2cccc(/C=N/Nc3ccc(C(=O)O)cc3)c2)cc1
    8.8, -27.6*, 12.0*, i, ·, 10.5, -18.2*, 1.6, ·
COc1cc(S(=O)(=O)Nc2ncccc2C)c(OC)cc1Cl
    11.4, ·, ·, ·, 2.9, ·, ·, -3.6, 0.696
Cc1ccc(SCCC(=O)OC(C)C(=O)Nc2ccccc2)cc1 (stereo unspecified)
    -3.3, -10.5, 0.3, i, 3.6, -4.1, -5.6, -4.5, 0.62
CCOc1ccc(NC(=O)C2CCCCN2S(=O)(=O)c2ccccc2)cc1 (stereo unspecified)
    3.6, 1.0, 2.3, ·, 2.3, -11.3, 2.8, 1.3, 0.72
